Screening data (PubChem)
Vif TR-FRET: inhibitors of Vif binding to APOBEC3G peptide, primary screen, biochemical, TR-FRET, GST-Vif 1-94, biotin-A3G peptide, dose response retest (AID 1117319); TR-FRET GST-Vif / biotin-A3G peptide binding; higher % means a stronger effect; test concentration not given here; strong numbers were not always called active; inhibition, %; hits with a dose series show IC50 in µM; 260,000 compounds, 0.57% hits;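 active = above the screen mean plus three standard deviations and confirmed in dose response; inconclusive = results disagree or hit not tested in dose response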;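 also: Vif residues 1-94 fused to GST binding biotinylated APOBEC3G peptide 110-148; 0% = full assay without inhibitor and 100% = GST in place of GST-Vif; retest series ran down from 100 µM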
HNF4A DNA FP: change in binding of human HNF4 alpha to DNA. P41235. activity change, % at 10 µM. HNF4a-FITC DNA binding, fluorescence polarization, 1 h. AID 1224865. 360,000 compounds, 0.3% hits; in the data active = activity change above about 30%, passing the limit was not always enough;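 also: controls were the assay level and a saturating level of protein; the project sought stronger binding though the title names inhibitors; some compounds called inactive have numbers as strong as hits; positive values seem to mean higher polarization but the record does not say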
UCH37 inh: human UCH37 deubiquitinating enzyme inhibition. Q9Y5K5. purified proteasome/UCH37, Ub-AMC cleavage fluorescence. inhibition, % (test concentration not listed). 330,000 compounds, 0.33% hits;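 active = mean of two replicates above 20%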;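 also: 0% = compound-free wells with enzyme and 100% = wells lacking proteasome; stock transfer was 100 nL into about 20 µL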
Target sequence (Q9Y5K5 whole entry, looked up): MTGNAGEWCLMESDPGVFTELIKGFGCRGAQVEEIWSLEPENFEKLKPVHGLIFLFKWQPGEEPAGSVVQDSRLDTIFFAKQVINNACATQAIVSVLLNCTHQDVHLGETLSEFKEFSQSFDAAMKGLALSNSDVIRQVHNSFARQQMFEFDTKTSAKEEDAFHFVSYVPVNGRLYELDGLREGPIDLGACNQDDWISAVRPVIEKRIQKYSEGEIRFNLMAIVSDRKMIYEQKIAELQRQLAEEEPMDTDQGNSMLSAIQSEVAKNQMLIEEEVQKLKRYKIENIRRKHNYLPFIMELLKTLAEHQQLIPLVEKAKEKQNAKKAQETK
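Material: Human UCH37 enzyme supplied as purified proteasome complex | Schedule: 30 min compound-proteasome preincubation then 25 min substrate reaction, room temperature | Detection: AMC fluorescence from Ub-AMC cleavage, excitation 355 nm, emission 460 nm | Benchmarks: Wells without proteasome as full block, compound-free enzyme plus substrate as uninhibited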
Ecoli growth: E. coli growth inhibition. AID 1053175. OD600 absorbance (concentration not given with the values). 330,000 compounds, 0.21% hits. Escherichia coli growth, OD600, 23 h; hits give low values;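 active = OD600 absorbance below the run mean of sample wells minus 3.6 SD, in any replicate, cut at about 0.56 in these data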;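 also: stock transfer was 300 nL into about 60 µL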
LANA-H2A inh: blocks KSHV LANA binding to histone H2A/H2B. Q9QR71. inhibition, % (concentration not given with the values). 320,000 compounds, 0.6% hits. cell-free LANA-H2A/H2B peptide, fluorescence polarization; in the data active = inhibition mostly above about 10%, no sharp cut-off; inactive = mostly below about 6.7%;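 also: stock transfer was 7.5 nL into about 10 µL; 0% = median of vehicle wells and 100% = median of positive control wells; one replicate is shown; the record names a cut of 25% in any replicate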
B2AR ag: agonists of human beta-2 adrenergic receptor inducing internalization; P07550; Am2.2-beta2AR cells, FAP receptor internalization, flow cytometry; reference of the scale not given here; response, % (concentration not given with the values); 340,000 compounds, 0.43% hits; AID 504454;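 active = response above a set limit, near 3 SD of response in nonfluorescent compounds, cut at about 42% in these data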;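 also: stock transfer was 100 nL into about 11 µL; a reference agonist was the positive control; negative values mostly stem from fluorescent compounds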
Target sequence (P07550 whole entry, looked up): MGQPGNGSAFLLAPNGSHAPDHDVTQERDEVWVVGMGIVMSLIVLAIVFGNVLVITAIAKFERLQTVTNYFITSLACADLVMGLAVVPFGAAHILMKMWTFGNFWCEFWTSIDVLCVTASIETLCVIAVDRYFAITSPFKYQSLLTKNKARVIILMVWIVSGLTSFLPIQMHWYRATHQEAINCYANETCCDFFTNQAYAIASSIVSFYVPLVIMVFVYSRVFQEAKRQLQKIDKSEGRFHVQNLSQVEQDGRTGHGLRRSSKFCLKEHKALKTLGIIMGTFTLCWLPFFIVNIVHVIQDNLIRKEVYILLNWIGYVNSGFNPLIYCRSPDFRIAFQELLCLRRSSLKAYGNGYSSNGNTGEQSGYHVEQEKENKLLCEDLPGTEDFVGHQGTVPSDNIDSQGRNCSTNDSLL
A1 inh: inhibitors of the anti-apoptotic protein A1, read as caspase activation. MEF A1-2A-BIM cells, Caspase-Glo 3/7 luminescence, 3 h; percent of clofoctol response, vehicle zero. caspase activation, % (test concentration not listed). 330,000 compounds, 0.066% hits;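 active = over half of replicate activation scores above 10%, or exactly half above 10 with the replicate mean above 10; inconclusive = replicate mean below 10 yet half the replicates above 10; inactive = over half of replicates below 10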;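 also: wells of about 30 µL received 50 nL stock; many hits fall short of the cut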
The depositor's hits bear a star; ? = inconclusive; · = not tested or not shown. Rows are unselected (roughly 2.1% active in at least one column).

SMILES	Vif TR-FRET	HNF4A DNA FP	UCH37 inh	Ecoli growth	LANA-H2A inh	B2AR ag	A1 inh
O=C1CC(N2CCC(C(=O)N3CCCCC3)CC2)C(=O)N1 (stereo unspecified)	15%	1.3	1.5	0.76	-2.6	-4	0.6
COc1ccc(-c2cc3ccccc3s2)cc1[C@H]1[C@H]2C=CC[C@@H](C)[C@@H]2C(=O)N1Cc1ccccc1	-3%	6.8	1.2	·	6.4	-15	-4.0
COc1ccccc1-c1cc(-c2ccccc2)nc(SC(C(N)=O)c2ccccc2)c1C#N (stereo unspecified)	-23%	1.7	-9.6	0.76	1.9	-2	-0.9
COc1ccccc1N1CCN(CC(=O)N(CC(C)C)c2c(N)n(CC(C)C)c(=O)[nH]c2=O)CC1	-3%	2.3	3.5	0.69	-0.3	1	1.2
COc1ccc(OC[C@@H](O)CNC(=O)c2cccc3c2C(=O)c2ccc(-c4ccc(F)cc4OCc4ccccc4)cc2S3(=O)=O)cc1	·	-2.6	3.7	·	-5.2	-7	0.4
CC(C)N1CCc2c(sc(NC(=O)c3ccco3)c2C(N)=O)C1	·	7.2	-7.9	0.67	4.1	4	-0.2
O=C(N/N=C/c1cc(Cl)ccc1O)C(=O)Nc1ccccc1OC(F)(F)C(F)F	18%	4.6	·	·	1.3	15	0.5
Cc1ccc(S(=O)(=O)N2CCN(S(C)(=O)=O)C2C)cc1 (stereo unspecified)	6%	0.8	-1.3	0.7	0.7	-1	-0.1
CCCOc1ccc(N2C(=O)CC(NCc3cccnc3)C2=O)cc1 (stereo unspecified)	?	0.0	-0.3	0.68	-2.1	-7	0.3
Cc1ccc(NCC(=O)Nc2ccc(Br)cc2)cc1F	10%	1.6	2.1	0.65	-7.2	-3	1.2
Cc1ccc(OCC(=O)Nc2ccc(O)c(C(=O)O)c2)cc1C	-2%	0.7	-41	0.7	1.6	3	0.5
CC1CN(C2=CC(=O)CCC2)CC(C)O1 (stereo unspecified)	0%	0.3	1.5	0.65	1.4	-4	-0.5
CCC(C)C(NC(=O)C1CCC(C)CC1)C(=O)Nc1ccc(OC)cc1 (stereo unspecified)	-9%	0.2	7.9	0.63	2.6	-3	0.7
Cc1ccc(NC(=O)c2c(C)nc(Nc3nc4ccccc4o3)nc2C)cc1	2%	1.1	2.4	0.7	0.1	-5	-0.4
COc1ccc(C2CC3(CC(C)(C)NC(SC)=N3)Oc3cc(O)cc(C)c32)cc1 (stereo unspecified)	1%	3.6	1.2	0.65	-0.8	31	-0.2
COC(=O)C1=C(C)N(Cc2ccco2)C(=O)/C1=C\c1ccc(N(C)C)cc1	·	47	3.1	·	-7.4	-2	-0.5
CC(Oc1ccc(Cl)cc1Cl)C(=O)Nc1ccc(O)cc1 (stereo unspecified)	·	-4.1	1.5	0.66	-3.9	-2	-1.0
CCOC(=O)c1sc2nc(SCC(=O)NCc3ccco3)n(Cc3ccccc3)c(=O)c2c1C	12%	-0.3	-23	0.7	-0.7	-13	0.5
Cn1nccc1C(=O)Nc1cc(Cl)ccc1Cl	·	1.8	1.9	0.66	1.4	-2	-0.4
COc1ccc(C2CC(C(C)(C)C)=NN2c2ccc(S(N)(=O)=O)cc2)cc1 (stereo unspecified)	-3%	0.0	-2.5	0.67	·	6	·
CC(CNC(=O)c1ccc(Br)o1)NC(=O)c1ccc(Br)o1 (stereo unspecified)	-1%	-0.8	-0.7	0.74	-5.8	0	0.1
Cc1c(C(=O)/C=C/N(C)C)nnn1-c1ccc(F)c(Cl)c1	3%	0.5	16	0.68	0.5	-3	0.1
Cc1cc(-c2ccccc2)nc(N2CCC(C(=O)NC34CC5CC(CC(C5)C3)C4)CC2)n1	-1%	1.1	-11	0.72	-2.2	1	0.0
O=C(O)c1ccccc1C(=O)N(c1ccccc1)c1ccccc1	·	-1.8	1.3	0.62	0.3	1	0.1
COC(=O)[C@@H](NC(=O)NCCC1=CCCCC1)C(C)C	-5%	0.1	6.4	0.7	1.2	-7	1.6
CCCC(=O)NC1=C(Cl)C(=O)c2ccccc2C1=O	13µM*	-1.5	·	·	·	38	·
Cc1ccc(NC(=O)COC(=O)Cc2cccs2)c(Br)c1	·	-3.6	-1.6	0.68	-1.8	-1	0.6
CCOc1ccccc1NC(=O)NCCC1=CCCCC1	0%	2.0	-3.5	0.69	3.0	1	1.1
OCc1nc2ccccc2n1CCCCOc1ccccc1	·	2.2	2.0	0.65	-4.3	-8	0.4
O=C(CNC(=O)c1ccc(Cl)cc1)OCC(=O)c1ccc2c(c1)OCCO2	-11%	-0.4	-0.5	0.73	4.8	2	0.0
O=C1c2ccccc2NC(c2ccc(Br)o2)N1O (stereo unspecified)	·	-2.3	4.3	0.73	1.6	1	-1.9
CCCCn1c(N)c(N(CCC(C)C)C(=O)C2CC(=O)N(c3ccc(OC)cc3OC)C2)c(=O)[nH]c1=O (stereo unspecified)	-1%	-0.2	0.6	0.67	·	0	0.4
COc1ccc(/C=C(\C)c2nc(C)c(-c3ccccc3)c(=O)[nH]2)cc1	?	-1.4	-8.3	0.66	-0.2	1	0.4
CS(=O)(=O)N(CC(=O)N1CCC(C(N)=O)CC1)C1CCCCC1	3%	-3.1	0.8	0.73	0.3	-4	-0.7
O=C(COc1ncnc2cc([N+](=O)[O-])ccc12)NC(=O)NC1CCCCC1	6%	3.1	-2.7	0.71	0.9	-6	0.2
FC(F)Oc1ccc(NC(=S)N2CCc3ccccc32)cc1	·	2.0	0.2	0.67	0.4	-2	-0.3
CCN(CC(=O)Nc1ccc(Cl)c(S(=O)(=O)N(C)C)c1)CC(=O)NC(C)C	-1%	14	0.5	0.67	-5.6	2	-0.6
CC(=O)c1cccc(N=C2C(=O)Nc3ccccc32)c1	?	3.0	-0.2	0.65	-3.7	6	0.5
COc1cc(/C=N/O)cc(Br)c1OCC(=O)NCc1ccccc1	·	-2.3	·	·	-2.1	-2	0.1
CC1C(=NO)C(C)C(c2ccccc2)NC1c1ccccc1 (stereo unspecified)	-3%	-1.3	4.0	0.7	-0.9	3	-0.2
COc1ccc(CCNC(=O)CCS(=O)(=O)c2ccc3c(c2)NC(=O)CO3)cc1OC	·	-0.4	1.8	0.7	-2.1	2	-0.6
O=C(c1cccc(Cl)c1)C1CCCN(C(=O)c2ccoc2)C1 (stereo unspecified)	2%	2.0	2.1	0.66	-6.5	0	-0.3
O=C(Nc1ccccc1F)C(=Cc1sc(N2CCOCC2)nc1-c1ccccc1)C(=O)Nc1ccccc1F	3%	-55	1.9	0.76	-3.6	-13	0.5
Cc1cccc(NC(=O)CN2C(=O)NC(C)(c3ccc4c(c3)OCO4)C2=O)c1 (stereo unspecified)	4%	-1.6	2.3	0.67	2.2	18	-0.5
CCCCOc1nc2ccccc2nc1C(C#N)C(=O)NC1CCCCC1 (stereo unspecified)	2%	0.4	-1.8	0.77	-0.3	-1	0.0
CC1OC(C)(C)OC1C1CNc2nc(NC(=O)C(C)(C)C)[nH]c(=O)c2N1C(=O)c1cccnc1 (stereo unspecified)	9%	-2.6	1.4	0.69	-2.5	-3	-0.5
CCOC(=O)C1CCN(CCC(=O)Nc2cccc(Cl)c2)CC1	7%	-3.2	3.5	0.75	5.6	7	2.2
Cc1oc(-c2ccccc2)cc1C(=O)Nc1ccc(N(C)C)cc1	11%	-4.7	2.7	0.75	-1.4	7	0.1
CC(C(=O)Nc1ccc(C(=O)O)cc1)N1C(=O)c2ccccc2C1=O (stereo unspecified)	8%	-0.2	1.8	0.71	4.3	-3	0.7
CN(C)S(=O)(=O)Oc1ccccc1C(=O)Nc1ccccc1Cl	3%	4.8	2.5	0.68	-1.7	2	1.9
c1ccc2c(c1)[nH]c1ccncc12	·	-1.3	-0.3	·	-3.0	-9	-1.1
CCN1C(=O)/C(=C\N2CCCCCC2)SC1=S	-3%	0.9	0.7	0.71	0.8	-1	0.9
COc1ccc(C)cc1S(=O)(=O)N1CCCCC1	13%	-0.3	1.2	0.68	-2.6	-3	0.8
Cc1onc(-c2ccccc2)c1C(=O)NNC(=S)NC(=O)c1ccc2c(c1)OCO2	10%	1.4	3.0	0.65	2.0	-6	-0.3
CCCCOc1ccccc1C(=O)NCCCC(=O)O	-3%	-0.8	-2.4	0.72	-7.4	5	-0.5
Cc1ccc(S(=O)(=O)c2c[nH]c3cc4c(cc3c2=O)OCO4)cc1	-12%	·	-6.2	0.71	3.7	·	-0.6
CCOc1ccccc1NS(=O)(=O)c1ccc(-c2cnc(C3CC3)o2)cc1	·	-0.6	0.5	0.71	-8.9	27	0.9
O=C1NNC(=O)C1c1ccccc1	12%	-2.7	5.1	0.69	4.9	-1	0.1
Cc1ccsc1C(=O)OCc1csc(-c2ccccc2)n1	3%	0.3	2.6	0.72	-5.4	2	-11
CCc1noc(C)c1C(=O)N1CCC(CCC(=O)Nc2cccc(C)c2)CC1	·	-2.3	-0.2	0.66	-5.0	1	-0.2
More records.
SMILES	Vif TR-FRET	HNF4A DNA FP	UCH37 inh	Ecoli growth	LANA-H2A inh	B2AR ag	A1 inh
Cc1ccc(-c2cc(C(F)F)n3ncc(C(=O)N4CCCc5ccccc54)c3n2)cc1	8%	3.8	0.5	0.77	1.2	-20	0.0
O=C1N=c2ccccc2=C1c1sc(NS(=O)(=O)c2ccccc2)nc1O	6%	1.7	4.6	0.67	-0.9	-3	-0.3
CN1CCN(NC(=O)Nc2cccc(Cl)c2Cl)CC1	16%	4.4	6.5	0.68	1.6	10	-0.1
COc1ccc(OC)c(CNC(=O)C2CCN(C(=O)N(C)C)CC2)c1	2%	6.5	-0.5	0.65	2.3	-2	1.3
O=C(Nc1ccc(-c2nc3ccccc3[nH]2)cc1)c1c(F)c(F)c(F)c(F)c1F	-10%	3.6	-24	0.64	-1.2	8	0.2
CCCn1nc(C(=O)N2CCCc3ccccc32)c2ccccc2c1=O	-10%	0.4	1.0	0.63	1.9	-4	0.2
COc1cccc(NC(=O)COC(=O)c2cc(=O)c3ccccc3o2)c1	?	1.8	1.6	0.68	-1.3	1	0.5
COc1ccc(Cn2c(-c3ccco3)nc3oc4cc(OC)ccc4c(=O)c3c2=O)cc1	14%	-1.1	0.3	0.74	4.5	-2	-0.1
O=c1[nH]ncc2c3ccccc3n(Cc3ccccc3)c12	-12%	-0.6	-0.3	0.67	2.6	-7	0.7
O=C(Nc1ccc(N2CCN(C(=O)c3ccco3)CC2)cc1)c1ccco1	17%	1.2	-0.1	0.7	-1.4	3	-0.9
CCn1c(O)c(/C=C2\C=Nc3ccccc32)sc1=O	-3%	-0.6	0.6	0.71	14*	0	-2.1
N#Cc1ccccc1-c1ccccc1C(=O)N1CCCCC1	·	-2.0	2.1	0.69	2.5	0	0.2
CCOc1nnnc2c1sc1nc(N3CCOCC3)c3c(c12)CCCC3	16%	1.2	3.7	0.64	2.5	0	-0.1
CCC(=O)NCCCCNC(=O)CC	-3%	0.8	3.3	0.68	4.3	11	-0.8
O=C(COC(=O)CNS(=O)(=O)c1ccc(F)c(F)c1F)NC1CC1	-4%	-4.5	0.2	0.72	-5.6	-3	-0.5
